Source: PubChem
Anaer choline gr: blocks anaerobic gram-negative growth on choline; 55,000 tested, 0.2% active; Gram-negative bacterium anaerobic choline minimal medium, absorbance growth; stronger effect = lower value; many inactives read as strong as hits in the columns shown; calls only; AID 1963822;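 active = growth z-score on choline under -2 at 7 or 20 h with little or no fall on glycerol, limits in tiers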;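 also: stock transfer was 300 nL into about 50 µL; the organism is E. coli; final concentration not given here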
Anaer choline gr early: second read-out of Anaer choline gr, no call of its own (marks repeat the call); z-score; measured here: choline growth z-score, timepoint 1;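 score of optical density at 7 h as mean of two plates; lower means less growth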
Starred values were filed as active, the others as inactive; i = inactive; & = joins results of further samples. Only part of the results is shown; count on the stated rates, not on these rows.

Start of the data: the first 4 compounds (preview)
SMILES | Anaer choline gr early | Anaer choline gr
O=C1COc2ccc(S(=O)(=O)N3CCN(c4cccc(Cl)c4)CC3)cc2N1 | 0.25 | i
CCc1ccc(NC(=O)NCc2ccc3c(c2)N(C(=O)c2cccc(C)c2)CC3)cc1 | 0.51 | i
CCOc1ccc(-c2noc(N3CCC(C(=O)N4CCOCC4)CC3)n2)cc1OC | -0.33 | i
CCOC(=O)c1[nH]c(C)c(CN(C(=O)Nc2ccc(OC)c(OC)c2)C2CCCCC2)c1C | 0.63 | i

The listing, from the first entry:
SMILES | Anaer choline gr early | Anaer choline gr
O=C1COc2ccc(S(=O)(=O)N3CCN(c4cccc(Cl)c4)CC3)cc2N1 | 0.25 | i
CCc1ccc(NC(=O)NCc2ccc3c(c2)N(C(=O)c2cccc(C)c2)CC3)cc1 | 0.51 | i
CCOc1ccc(-c2noc(N3CCC(C(=O)N4CCOCC4)CC3)n2)cc1OC | -0.33 | i
CCOC(=O)c1[nH]c(C)c(CN(C(=O)Nc2ccc(OC)c(OC)c2)C2CCCCC2)c1C | 0.63 | i
CCc1ccc(NC(=NCc2ccncc2)NC(=O)c2ccc3c(c2)OCO3)cc1 | 1.37 | i
O=C(CC1CCCCC1)N1CCC(N2CCN(Cc3ccccc3)C(=O)C2=O)CC1 | -0.6 | i
Cc1c(S(=O)(=O)N2CCN(c3ccccn3)CC2)cc(-c2nc(-c3ccccc3)cs2)n1C | -0.65 | i
COc1ccc(Nc2ncnc3ccc(OC)cc23)cc1 | 0.55 | i
CCCCNC(=O)CC1(CC2=NS(=O)(=O)c3ccccc3N2)CCCC1 | -0.76 | i
CCOc1ccc(NCC2C(Oc3ccc(Cl)cc3)C(=O)N2c2ccc(OCC)cc2)cc1 (stereo unspecified) | 1.56 | i
CC1CCN(C(=O)c2cc(-c3cccnc3)n[nH]2)CC1 | -0.4 | i
O=C(Nc1ccccc1)N1CCn2c(nc3ccccc32)C1 | -1.57 | i
O=C(CCc1nnc2c3cc(-c4ccccc4)nn3ccn12)NCc1ccncc1 | -0.94 | i
C#CCn1cnc2c(cnn2-c2ccc(C)c(C)c2)c1=O | -0.81 | i
COc1ccc(NC(=O)c2ccc3nn(CC(=O)Nc4ccc(OC)c(Cl)c4)c(=O)n3c2)cc1 | 0 | i
COc1cc(OC)cc(C(=O)Nc2nc(CC(=O)Nc3ccc(Br)cc3)cs2)c1 | 0.47 | i
Cc1cc(C)nc(-n2[nH]c3nccc(-c4ccc5c(c4)OCO5)c3c2=O)n1 | 0.45 | i
CCCCNC(=O)c1cnc2c(C)cccn2c1=O | -1.59 | i
CN(C)CCOC(c1ccccc1)c1ccccc1 (tested in a mixture with another compound) | 0.34 | i
O=C1c2ccccc2C(Cc2ccncc2)(Cc2ccncc2)c2ccccc21 | -0.19 | i
Cc1nc2nc(-c3ccc(C(C)(C)C)cc3)nn2c(C)c1CC(=O)N(C)Cc1ccccc1 | -0.72 | i
O=C(NC1CCCC1)c1cncc(NS(=O)(=O)c2ccc3c(c2)OCCO3)c1 | -0.12 | i
Cc1ccc(N2CCN(C(=O)CCC3=NS(=O)(=O)c4ccccc4N3)CC2)c(C)c1 | 0.74 | i
CCN(CC)S(=O)(=O)c1ccc2c(c1)cc(C(=O)N1CCN(c3cc(C)ccc3C)CC1)n2C | 0.69 | i
CCc1cc(C(Nc2ccccn2)c2ccc3c(c2)OCO3)c(NC(=O)c2ccccc2)s1 (stereo unspecified) | 0.74 | i
CCOC(=O)c1cc2n(n1)CC(C)(C(=O)NCCC(C)C)N(c1cc(OC)cc(OC)c1)C2=O (stereo unspecified) | 0.34 | i
CC(CNC(=O)Cn1ncn2c(cc3ccccc32)c1=O)c1ccccc1 (stereo unspecified) | -1.44 | i
COc1ccc(-n2c(C)cc(CNC(=O)Nc3cccc(F)c3)c2C)cc1 | 0 | i
O=C(OCC1CCCO1)c1ccc2c(c1)N(Cc1cccc(Cl)c1)C(=O)c1ccccc1S2 (stereo unspecified) | 1.19 | i
O=C(Nc1cccc(F)c1)C1CC(=O)N(c2ccc3c(c2)CCN3C(=O)C2CCC2)C1 (stereo unspecified) | 1.98 | i
Cc1nc(-c2ccc(Cl)cc2)sc1CCNS(=O)(=O)CCc1ccccc1 | 0.45 | i
O=C(Nc1ccccc1)c1nnc(COCC(=O)N2CCN(c3ccccn3)CC2)s1 | -0.29 | i
Cc1ccc(C)c(NC(=O)N2CCN(Cc3cc(=O)n4nc(-c5ccccc5)sc4n3)CC2)c1 | -0.56 | i
COc1ccc(OCC(=O)N(C)CCc2noc(COc3ccc(OC)cc3)n2)cc1 | -0.9 | i
Cc1cccc(C(=O)Nc2cnc3cc(C)ccn3c2=O)c1 | 0.31 | i
C=CCn1c(=O)c(C(=O)Nc2ccccc2Cl)c(O)c2ccccc21 | 0.84 | i
Cc1ccc(C)c(N2CCN(C(=O)c3cn(-c4cc(-c5noc(C)n5)ccc4C)nc3C)CC2)c1 | 0.79 | i
Cn1cc(C(=O)Nc2ccc(Br)cc2)c2[nH]c(=O)n(-c3ccc(Cl)cc3)c(=O)c21 | 0.53 | i
O=S(=O)(Nc1cccc(-c2ccc(N3CCOCC3)nn2)c1)c1ccc(F)cc1F | -1.32 | i
O=c1n(CCCN2CCN(c3cccc(Cl)c3)CC2)nc2ccccn12 | -1.75&0.44&-0.17 | i
O=C(Nc1ccc(F)cc1)c1c(O)c2ccccc2[nH]c1=O | 0.76 | i
CCN(Cc1ccc(OC)cc1)S(=O)(=O)c1ccc(OC)c(-c2noc(C)n2)c1 | -0.51 | i
O=C(NC1CCCCC1)C1CCCN(c2ccnc(-c3ccc(F)cc3)n2)C1 (stereo unspecified) | 0.55 | i
CCOCCCN1C(=O)c2cc(C(=O)OCC)nn2CC1(C)C(=O)NC1CCCCC1 (stereo unspecified) | -1.51 | i
Cn1c(=O)n(C)c2cc(S(=O)(=O)c3ccc4c(c3)n(C)c(=O)n4C)ccc21 | -1.13 | i
Cc1ccc2c(c1)Oc1cc(Cl)c(S(=O)(=O)N3CCOCC3)cc1C(=O)N2 | 0.09 | i
CCCCC/C=C\C=C1\C(=O)CC[C@@H]1C/C=C\CCCC(=O)O | -0.73 | i
FC(F)(F)c1ccc(-c2noc(CSc3ccc(-c4ccc5c(c4)OCO5)nn3)n2)cc1 | 1.44 | i
Cc1[nH]nc2c1C(c1ccccc1OC(C)C)CC(=O)N2 (stereo unspecified) | -0.35 | i
Cc1ccc(-c2c(C)noc2C)cc1S(=O)(=O)N1CC=C(c2ccccc2)CC1 | -0.02 | i
CCc1nc(NCCC(C)C)c2onc(-c3ccc(C)cc3)c2n1 | 2.37 | i
Cc1ccc(Cl)cc1N1NC(=O)C(C)(C)C1=O | -1.05 | i
CC1CN(C2CCCCC2)c2nc3c(c(=O)n(CCCO)c(=O)n3C)n2C1 (stereo unspecified) | 0.72 | i
COc1ccc(CCNc2ccc(-c3nc(-c4ccccc4)no3)nn2)cc1OC | 0.83 | i
COc1ccc(C(=O)n2c(=O)oc3ccc(C(C)(C)C)cc32)cc1 | -0.28 | i
Cc1ccccc1S(=O)(=O)N1CCCC1c1cc(C(C)C)no1 (stereo unspecified) | 0.23 | i
Cc1ccc(CNC(=O)c2nc(-c3oc4ccccc4c3C)no2)cc1 | 0.53 | i
CCS(=O)(=O)c1nc2ccc(NS(=O)(=O)c3ccc(OC)c(OC)c3)cc2s1 | 0.03 | i
Cc1cccc2c1cnn2C(=O)CCC(=O)NC1CCCCC1 | -0.35 | i
c1cc2c(cc1-c1noc(C3CCC3)n1)nnn2CCN1CCCCC1 | -1.15 | i

Full records as entered above. Order of values: Anaer choline gr early, Anaer choline gr
Profile of Cc1[nH]nc2c1C(c1ccccc1OC(C)C)CC(=O)N2 (stereo unspecified) : -0.35, i
Profile of Cn1cc(C(=O)Nc2ccc(Br)cc2)c2[nH]c(=O)n(-c3ccc(Cl)cc3)c(=O)c21 : 0.53, i
Profile of FC(F)(F)c1ccc(-c2noc(CSc3ccc(-c4ccc5c(c4)OCO5)nn3)n2)cc1 : 1.44, i

Other records follow:
SMILES | Anaer choline gr early | Anaer choline gr
COc1ccccc1N1CCN(C(=O)CSc2nnc(-c3ccncc3)o2)CC1 | -0.74 | i
CC(C)(C)c1ccc(C(=O)N2CCN(Cc3cc(=O)n4nc(-c5ccccc5)sc4n3)CC2)cc1 | 0.45 | i
O=C(Nc1ccc(Cl)cc1)N1CCCCCC1c1cccs1 (stereo unspecified) | 1.49 | i
COc1cc(OC)cc(C(=O)N2CCN(C(=O)c3cc4cc(Br)ccc4[nH]3)CC2)c1 | 0.26 | i
O=C(NCCc1c[nH]c2ccccc12)c1noc2c1CCc1sccc1-2 | 0.78 | i
COc1ccc(N2CCN(C(=O)Cc3csc(NC(=O)Nc4ccccc4)n3)CC2)cc1 | 0.67 | i
CN1CCN(c2ccc(NS(=O)(=O)c3ccc(F)cc3)c(C(=O)O)c2)CC1 | -0.89 | i
COc1ccccc1C(=O)NCC(c1ccc2c(c1)CCCN2C)N1CCCC1 (stereo unspecified) | 1.03 | i
COc1ccc(CCNC(=O)c2nc(CCS(=O)(=O)c3ccccc3)no2)cc1OC | -0.31 | i
O=C(c1cc(=O)c2ccccc2o1)N1CCN(CCc2ccncc2)CC1 | -0.31 | i
Cc1cc(C)cc(OCC(O)Cn2c(C3CC3)nc3ccccc32)c1 (stereo unspecified) | -1.59 | i
Cc1ccc(-c2noc(C3CCCN(S(=O)(=O)c4ccccc4)C3)n2)cc1 (stereo unspecified) | 0.64 | i
CCSc1nc2ccc(NS(=O)(=O)c3ccc(F)c(Cl)c3)cc2s1 | 0.25 | i
COCc1cnc2c(c1SCC#N)c(=O)n(C)c(=O)n2C | 0.21 | i
COCCn1ccc2nc(C)c(C(=O)N3CCOCC3)cc2c1=O | -0.9 | i
O=C1CC[C@@H](C(=O)O)N1 | 0.57 | i
COc1ccc(CCN2C(=O)c3ccccc3CC2(C)C(=O)NC2CCCCC2)cc1OC (stereo unspecified) | 0.6 | i
CCCCN1CCN(Cc2nc3nc(C)cc(N4CCN(C)CC4)n3n2)CC1 | -0.43 | i
O=C(Cn1c(=O)c2cccnc2n(-c2ccccc2)c1=O)Nc1cc(F)ccc1F | 1.36 | i
Cc1ccc(NC(=O)Nc2cccc(Cl)c2)cc1OCc1cc(=O)n2ccccc2n1 | -0.41 | i
COc1ccc(-n2c(C)cc(CNS(=O)(=O)c3cccc4nsnc34)c2C)cc1 | 0.28 | i
Cc1ccc(C(=O)N2CCc3ccc(NC(=O)NCCc4ccccc4)cc32)cc1 | 0.28 | i
COc1ccccc1NC(=O)C1CCN(c2cc(=O)n(C)c(=O)n2C)CC1 | -0.35 | i
Cc1nc(Nc2ccc(NC(=O)C3CCCC3)cc2)cc(N2CCOCC2)n1 | 0.58 | i
Cc1cccc(N2CCN(C(=O)c3cccc(N4CCCS4(=O)=O)c3)CC2C)c1 (stereo unspecified) | -1.07 | i
CCc1noc2nc(C)nc(NC3CCCC3)c12 | -0.67 | i
COc1ccc(C(=O)Nc2ccc(-c3ccc4ccccc4n3)cc2)c(OC)c1 | 0.45 | i
CC1CCN(c2cc(NC(C)C)c3c4c(onc24)-c2ccccc2C3=O)CC1 | 0.76 | i
CC1CCC(NS(=O)(=O)c2ccc3c(c2)NC(=O)C(CC(=O)N2CCCC2)CS3)CC1 (stereo unspecified) | -0.26 | i
Cn1c(=O)c2sccc2n2c(=O)[nH]nc12 | -0.21 | i
COc1ccc(OC)c(C2=NS(=O)(=O)N(C)C(C(=O)N(C)Cc3ccccc3)=C2)c1 | 0.49 | i
CCCCCCCCCCCCCCCC(=O)C(F)(F)F | 0.43 | i
Cc1ccc(S(=O)(=O)c2cnc(N3CCC4(CC3)OCCO4)nc2N)cc1C | -0.24 | i
COc1ccc(-c2c(C(=O)NCc3ccccn3)nn3c(C)cc(C)nc23)cc1S(=O)(=O)N1CCCC1 | -0.21 | i
CN1CCCN(c2ccc(NS(=O)(=O)c3ccc(F)cc3)c(C(=O)O)c2)CC1 | -1.04 | i
Cc1nc2nc(CNc3ccccc3Cl)[nH]n2c(=O)c1C | -1.09 | i
CC(C)CNC(=O)N1CCN(Cc2nc3cccnc3n2-c2ccccc2)CC1 | -1.1 | i
Cn1nnc2cc(-c3noc(Cc4ccc(Cl)cc4)n3)ccc21 | 0.62 | i
NS(=O)(=O)c1ccc(NC(=O)c2ccc(=O)n(Cc3cccc(Cl)c3)c2)cc1 | -0.26 | i
CCOc1ccc(NC(=O)Cn2c(C)cc(C)c(S(=O)(=O)c3ccc(OC)c(OC)c3)c2=O)cc1 | 4.13 | i
Nc1c(-c2ccc(Cl)cc2)cnc2ncnn12 | -1.1 | i
CCOC(=O)c1c(NC(=O)CSc2nc3c(c(=O)[nH]2)CCCC3)sc2c1CCCC2 | -0.3 | i
CC(C)COCC(CN(Cc1ccccc1)c1ccccc1)N1CCCC1 (stereo unspecified) | -0.13&0.4&-0.19&-0.07 | i
Cc1ccc(NC(=O)NCC2CCN(Cc3cccc(Cl)c3)CC2)c(Cl)c1 | 0.46 | i
CCSc1nnc2c(n1)OC(c1cccc(Br)c1)N(C(C)=O)c1ccccc1-2 (stereo unspecified) | 0.03 | i
CCN1CCCC1CNC(=O)CCCn1nc(C)n2c(cc3sccc32)c1=O (stereo unspecified) | 0.42 | i
Cc1nn(Cc2noc(-c3ccc(Br)cc3)n2)c(C)c1S(=O)(=O)N1CCCC1 | -0.39 | i
CCN(CC)CCNC(=O)CSc1nc2ccccc2n(CC)c1=O | -0.28 | i
NS(=O)(=O)C#Cc1ccccc1 | -3.42&-3.47&-2.85 | i
Cc1cc(C)c2c(n1)sc1c(=O)n(CC(=O)NCc3ccccc3)cnc12 | -0.16 | i
CCCC(=O)N1CCc2c([nH]c3ccc(OC)cc23)C1c1ccc(F)cc1 (stereo unspecified) | -0.69 | i
Cc1n[nH]c2nc(C(=O)O)c(CCO)c(=O)n12 | 0.71 | i
